# Screens from PubChem BioAssay.
# Autofluor counter: compound fluorescence in toxin protease inhibitor counterscreen. compound autofluorescence counterscreen, microsphere flow cytometry; hits give high values. fluorescence intensity (no concentration beside the values). hit rate 3.1% among 360,000. AID 624483;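 active = at least 3 SD above the mean of all compounds, about 16000 in these data; inconclusive = too few beads counted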;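 note: 100 nL of 1 mM stock went into each well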
# ugtP null kill: growth inhibition of S. aureus ugtP deletion strain. growth inhibition, % (no concentration beside the values). hit rate 0.54% among 330,000. S. aureus RN4220 ugtP deletion, OD600 growth, 16 h; some inactives read as strong as hits. AID 1259309;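 active = z-score under -3 and OD600 up to 0.15 on both plates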;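 note: plate controls were untreated wells for no effect and antibiotic for full effect; wells of about 80 µL received 100 nL stock; the first replicate is given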
# Mtb hypoxia inh: Mtb hypoxia fluorescent reporter inhibition; fluorescence inhibition, % (no concentration beside the values); M. tuberculosis hypoxia-regulated fluorescent reporter, fluorescence; hit rate 0.1% among 300,000; AID 1159583;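 active = 35 to 45% if threefold the growth effect, above 45% if 1.5-fold the growth effect; inactive = the rest, general growth blockers included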;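 note: wells of about 50 µL received 100 nL stock; 0% = vehicle wells and 100% = reference inhibitor wells; whole bacteria with a GFP reporter of the hypoxia response; strong numbers were not always called active; many hits fall short of the cut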
# RN4220 kill: kills Staphylococcus aureus RN4220; hit rate 0.33% among 330,000; AID 1259311; inhibition, % (concentration not given with the values); S. aureus RN4220 growth, OD600, 16 h;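 active = z-score of -3 or lower and OD600 up to 0.18 on both plates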;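 note: plate controls were untreated cells for no effect and reference antibiotic for full effect; stock transfer was 100 nL into about 80 µL; one replicate is shown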
# PrP UTR inh: inhibition of PrP 5' UTR reporter expression; AID 488862; cell-based PrP 5' UTR mRNA reporter, plate reader; hit rate 0.35% among 340,000; inhibition, % (concentration not given with the values);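 active = every replicate at 50% or more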;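 note: 0 = median of the neutral control wells; tested in H4 reporter cells; numbers are from one replicate; inactives centre near -14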
# BJeLR lethal: kills HRASV12-expressing BJeLR cells; BJeLR (HRASV12) viability, CellTiter-Glo ATP luminescence, 48 h; reference of the scale not given here; hit rate 0.17% among 300,000; inhibition, % (concentration not given with the values); AID 1554;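 active = replicate mean above 50%; inconclusive = above 50% but judged a plate artefact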;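 note: 50 nL library stock added to about 25 µL; numbers are from one replicate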
# Mtb hypoxia inh growth: also measured in Mtb hypoxia inh; calls as there; growth inhibition, %; measured here: M. tuberculosis growth (absorbance);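 0% = vehicle and 100% = reference antibiotic; read after six days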
# The depositor's hits bear a star; ? = inconclusive; nt = no result given; & = joins results of further samples.
SMILES,Autofluor counter,ugtP null kill,Mtb hypoxia inh,Mtb hypoxia inh growth,RN4220 kill,PrP UTR inh,BJeLR lethal
CSc1ccc(CN(C)C(=O)c2cccc(S(=O)(=O)N3CCN(Cc4ccccc4)CC3)c2)cc1,4187,-3,11,8,14,-18,1
CNC(=O)c1cc(S(=O)(=O)N2CC(C)OC(C)C2)ccc1N1CCOCC1 (configuration not stated),5767,1,1,-6,0.8,-14,-8
CCCC(=O)n1nc(-c2cccnc2)nc1NCc1ccc(OC)cc1,3982,8,12,8,-2.0,-31,5
Cc1ccc(/C=C(\C#N)C(=O)Nc2cccc(C)n2)cc1,3968,1,-2,-7,-0.7,-5,5
Nc1cc(Cl)ccc1C(=O)OCC(=O)NCC1CCCO1 (configuration not stated),3582,-2,3,3,0.1,-10,nt
Cc1cc(Br)ccc1NC(=O)CNC(=O)CNc1cccc([N+](=O)[O-])c1,5723,-4,-2,3,-1.7,23,nt
COc1cc(NC(=O)COC(=O)Cn2cnc3c2c(=O)n(C)c(=O)n3C)cc(OC)c1,4009,6,14,3,5.1,-3,nt
CC(C)NC(=O)CCCc1ccccc1,?,9,7,-8,2.2,-25,-6
O=C(Nc1ncccc1O)c1cccc(S(=O)(=O)N2CCCC2)c1,4477,6,2,4,2.3,-14,4
Cc1cccc(CN(C)C)c1OC(=O)N(C)C,20578*,-1,3,2,2.5,-25,-1
Cc1cccc(NC(=O)COC(=O)c2ccc3nc(C)c(C)nc3c2)c1,2896,3,2,5,1.9,4,nt
COc1ccc([C@H]2[C@H](C(=O)C(C)(C)C)N3N=Cc4ccccc4C3[C@]23N=C(c2ccccc2)OC3=O)cc1 (some centres not stated),5439,7,-15,8,-9.4,-18,-4
CCN(CC)CCCNC(=O)c1cc(-c2ccc(O)cc2)on1,5508,1,6,7,-10,-14,2
CCN(CC(=O)NCc1cccs1)C(=O)COc1ccccc1C#N,8093,2,2,6,1.5,-14,nt
CCN(CC)Cc1c(C(=O)NN=Cc2cccnc2)nnn1-c1nonc1N,nt,6,-9,-14,3.5,nt,nt
CC(C)(C)NC(=O)CN(Cc1ccc(F)cc1)C(=O)Cn1nnc(-c2ccc(F)cc2)n1,2502,1,-12,7,-1.9,-3,0
CC(=O)c1ccc(N2CCN(C(=O)Cc3ccccc3)CC2)c(F)c1,3743,8,18,13,3.4,-5,-5
COc1ccc(NS(=O)(=O)c2cc(NC(=O)c3nn(C)c(=O)c4ccccc34)ccc2OC)cc1,4107,6,1,4,3.1,1,-8
CC(C)CNS(=O)(=O)c1ccc(CCC(=O)N2CCN(c3ccccc3)CC2)cc1,3228,4,-3,7,7.0,2,13
O=C(NC1CCCCC1)C1(S(=O)(=O)c2ccc(Cl)cc2)CC1,4799,8,-1,-5,5.4,-3,2
COC(=O)c1c(NC(=O)C(C)(C)C)csc1C,5658,2,16,9,2.2,-10,3
Cc1nnc(SCC(=O)NC2CCCc3ccccc32)n1-c1ccccc1 (configuration not stated),10173,1,5,7,6.0,-10,1
CN(CC(=O)Nc1ccc(Cl)cc1)S(=O)(=O)c1cccc2cccnc12,5678,2,nt,nt,1.2,-12,-1
CC(C)C(NC(=O)c1ccc(C(C)(C)C)cc1)C(=O)O (configuration not stated),10188,4,-3,7,2.2,-26,3
O=c1[nH]c2ccc(NS(=O)(=O)c3ccc(F)c(Cl)c3)cc2[nH]1,5894,11,2,7,2.0,-2,-1
COc1ccccc1CCc1nnc(CCC(=O)N(C)Cc2ccncc2C)o1,2559,4,0,1,1.4,-23,-1
COc1ccccc1N1CCN(Cc2cc(=O)c(OCC(=O)Nc3ccccc3)co2)CC1,?,13,12,0,4.8,-14,1
CC1=C(C(=O)N2CCOCC2)C(c2ccccc2F)NC(=O)N1 (configuration not stated),2649,-1,12,2,1.2,-29,-2
C=CCn1c(N)c(C(=O)N2CCOCC2)sc1=S,19777*,3,-2,-15,-0.1,-25,0
CCOCC(=O)Nc1c(C(=O)N2CCN(c3ncccn3)CC2)oc2ccccc12,6334,1,10,6,0.2,-10,-3
COc1cc(/C=N/NC(=O)c2cc(C)oc2C)ccc1OCc1ccccc1,3567,nt,nt,nt,nt,-24,-11
CCCc1cc(=O)c2ccc(OCC(C)=O)cc2o1,5568,7,-3,4,3.8,-34,-6
O=C(/C=C/c1cccc(F)c1)OCC(=O)N1CCc2ccccc21,?,-1,9,-1,2.1,-14,nt
COc1ccc(C(=O)COC(=O)c2ccc(Cl)nc2)cc1OC,4360,1,1,4,3.2,1,nt
Cc1ccc(S(=O)(=O)N2CCCCC2)cc1NC(=O)Cc1c[nH]c2ccccc12,3212,-9,4,9,1.0,-3,-3
COc1cc(/C=C/C(=O)O)cc(S(=O)(=O)NNC(=O)c2ccc3c(c2)OCO3)c1OC,3738,2,-18,9,2.9,-3,nt
COc1ccc(CCCNC(=O)CC#N)cc1OC,5152,4,nt,nt,0.8,-21,-1
Cc1cc(C=O)c(C)n1-c1ccc(N2CCOCC2)c([N+](=O)[O-])c1,3430,3,11,4,2.1,-15,4
COC(=O)[C@@H]1C(c2c(OC)cc(OC)cc2OC)=NO[C@H]1C(=O)OC,9170,10,2,3,4.7,-19,-7
COc1ccc(CCn2c(C)cc(C(=O)CCl)c2C)cc1OC,5026,-5,19,33,19,-3,8
CC12CCC(=O)N1C(C(=O)N1CCN(c3ccc([N+](=O)[O-])cc3)CC1)CS2 (configuration not stated),3741,-1,1,4,2.2,-18,nt
CC(C)(C)OC(=O)NC(C(=O)OC(C)(C)C)c1ccccc1 (configuration not stated),nt,8&-1,2&18,7&11,5.7&8.1,nt,nt
O=C(NN=Cc1cccc(Cl)c1)c1c(O)c2c([nH]c1=O)CCCC2,nt,2,14,5,3.6,nt,nt
CN(C)CCn1c2c(c(SCC(=O)Nc3ccc4c(c3)OCCO4)nc1=O)CCC2,6004,3,6,4,-1.6,-31,11
CS(=O)(=O)N1CCC(C(=O)Nc2ccccc2Cl)CC1,3900,7,9,8,0.6,5,-4
Cc1cc(N2CCN(C)CC2)nc2ccc(NC(=S)N3CCOCC3)cc12,3991,5,-3,4,3.6,-21,-15
Cc1ccc(S(=O)(=O)N(C)C[C@@H]2Oc3ccc(NC(=O)CCC(F)(F)F)cc3CC(=O)N([C@@H](C)CO)C[C@@H]2C)cc1,3857,-14,1,19,-10,-19,nt
COC(=O)c1ccc(C2C(C(=O)Nc3ccc(C)cc3C)=C(C)Nc3ncnn32)cc1 (configuration not stated),4457,10,5,1,2.2,-32,9
COc1ccc2cc(C(c3nnnn3C3CCCC3)N3CCc4ccccc4C3)c(=O)[nH]c2c1 (configuration not stated),9920,-1,8,4,1.6,-13,1
COc1ccc(OC)c(NC(=O)Cn2c(=O)oc3ccccc32)c1,2837,-4,nt,nt,5.1,-14,11
C/C(=C\C(=O)O)CC(=O)O,2365,2,nt,nt,1.1,-11,-6
O=C(NN=Cc1ccc(Br)cc1)c1cc[n+]([O-])cc1,nt,3,-9,-7,-3.5,nt,nt
S=C(NCc1ccco1)Nc1cccc(Cl)c1Cl,nt,-8,7,8,3.4,nt,-5
COc1ccc(NC(=O)c2cc(-c3ccccc3)nc3c2cnn3C(C)C)c(OC)c1,8387,8,8,5,-0.3,-17,nt
Cc1ccc(NC(=O)c2cc(-c3ccco3)nc3ccccc23)cc1S(=O)(=O)N1CCOCC1,4380,2,-6,0,-5.9,7,1
COc1c(Br)cc(Br)cc1C(=O)O,6290,-6,0,0,4.0,-36,-3
COc1ccc(-c2ccc(C#N)c(SCC(=O)Nc3sc4c(c3C#N)CCC4)n2)cc1OC,9480,2,17,8,6.1,-19,13
CC1=C/C(=N\NC(=S)NCc2ccccc2)CC1,4365,nt,nt,nt,nt,-27,2
CN(c1ccccc1C(=O)NC1CC2CCC1C2)S(=O)(=O)c1ccccc1 (configuration not stated),1972,-2,-2,22,3.2,-16,16
c1ccc2c(CNC3CCCCCC3)c[nH]c2c1,11841,-29,-1,6,-0.9,-16,nt
# (continued)
SMILES,Autofluor counter,ugtP null kill,Mtb hypoxia inh,Mtb hypoxia inh growth,RN4220 kill,PrP UTR inh,BJeLR lethal
COc1ccc(CCNC(=O)c2cc(-c3ccccc3OC)on2)cc1OC,24479*,-2,17,6,8.3,0,-5
Cc1ccc(NC(=O)CCN2CCC(Cc3ccccc3)CC2)cc1,3196,2,9,8,-0.2,-25,-6
Cn1c(CN2CCN(C(=O)c3ccccc3Cl)CC2)nc2cc([N+](=O)[O-])ccc21,1985,12,-3,-4,4.4,-12,1
O=C(CSc1nc2c(c(=O)n1-c1ccc(Cl)cc1)SCC2)N1CCCC1,3233,4,3,0,2.6,-22,-4
O=C(CSc1nc2ccc(Cl)cc2[nH]1)NC1CCCC1,6190,-2,7,5,2.2,-1,0
CCc1ccc(N(C(=O)c2snc(C(N)=O)c2N)C(C(=O)NCCC(C)C)c2c[nH]c3ccccc23)cc1 (configuration not stated),5622,-19,-1,2,-7.1,-2,2
CCOc1ccc(NC(=O)NC2CCOC(C)(C)C2)cc1 (configuration not stated),2588,5,7,2,5.5,-27,7
COCCNC(=O)C(c1ccc(F)cc1)N(CCOC)C(=O)CCC(=O)Nc1nccs1 (configuration not stated),3532,1,nt,nt,4.8,-36,10
COc1cccc(OC)c1C(=O)Nc1cccc(-c2nc3ccccc3[nH]2)c1,4231,14,-4,5,4.4,-21,6
C/C(C=Nn1c(-c2ccco2)n[nH]c1=S)=C\c1ccco1,nt,-9,6,3,13,nt,nt
Cc1nnc2sc(SCc3cccc(Cl)c3)nn2c1=O,3652,-4,4,13,0.1,-11,4
COc1ccc(C2(CNC(C)=O)CCOCC2)cc1OC,4566,5,12,11,1.3,-28,19
CCn1cc(C=O)c2cc(S(=O)(=O)N3CCOCC3)ccc21,6945,3,9,6,4.4,-5,2
O=C(NC1CC1)C1=C[C@H](c2c[nH]c3ccccc23)C[C@H](OCc2ccc(CO)cc2)O1,4645,nt,nt,nt,nt,-19,-3
CC(C)Sc1nc(O)c(Cc2ccccc2)c(=O)[nH]1,20324*,-6,-5,-2,-2.2,-1,7
O=C(NCC1CCCO1)c1ccc(NC(=O)c2cccc(Br)c2)cc1 (configuration not stated),3925,2,5,4,1.5,-12,-7
CCCCn1c(=O)[nH]c(=O)c2c1nc(-c1ccc(C(F)(F)F)cc1)n2C,4754,-65,7,-3,4.2,-10,7
CSc1ccccc1OCc1cc(C(=O)N(C)C(C)c2nc(C)cs2)no1 (configuration not stated),?,3,0,1,3.3,-14,-3
Cc1cc(NC(=O)c2cccc(C(=O)Nc3cc(C)on3)n2)no1,3352,-5,0,-1,2.3,1,-4
Cc1ccc2cc(C)c3nnc(SCC(=O)c4cccs4)n3c2c1C,2047,-25,-1,14,2.8,-3,2
Cc1ccc(COc2ccc(C)nc2[N+](=O)[O-])cc1,6242,6,5,1,7.5,-96,2
O=C(NCC(=O)N(c1cccc(F)c1)C(C(=O)NC1CCCC1)c1cccnc1)c1ccco1 (configuration not stated),4142,0,0,-7,3.7,-7,-13
CCOC(=O)CN(C(=O)CCC(=O)Nc1cc(C)on1)C(C(=O)NC1CCCC1)c1cccnc1 (configuration not stated),4447,1,1,8,-0.4,6,-1
COc1ccc(-c2cn(CCC(=O)NCc3ccc(C)cc3)c(CCN)n2)cc1,4623,1,16,6,1.6,-14,2
N#CC1=C(N)OC2=C(CC/C2=C\c2ccccc2)C1c1ccccc1 (configuration not stated),10155,2,-82,-13,6.9,-11,5
CCn1c(=S)sc2c(=O)n(CC(=O)NC(C)CCc3ccccc3)c(C)nc21 (configuration not stated),4698,3,-2,2,-3.8,12,-1

# Profiles as entered above.
# `Cc1ccc2cc(C)c3nnc(SCC(=O)c4cccs4)n3c2c1C` in the list: Autofluor counter = 2047; ugtP null kill = -25; Mtb hypoxia inh = -1; Mtb hypoxia inh growth = 14; RN4220 kill = 2.8; PrP UTR inh = -3; BJeLR lethal = 2
# `CCCCn1c(=O)[nH]c(=O)c2c1nc(-c1ccc(C(F)(F)F)cc1)n2C` in the list: Autofluor counter = 4754; ugtP null kill = -65; Mtb hypoxia inh = 7; Mtb hypoxia inh growth = -3; RN4220 kill = 4.2; PrP UTR inh = -10; BJeLR lethal = 7
